# Compound activity: PubChem, Center for Chemical Genomics, University of Michigan
# HIV TAR-Tat: HIV-1 TAR-Tat binding disruption; HIV-1 TAR RNA, Tat peptide displacement FRET; stronger effect = higher value; z-score (test concentration not listed); 100,000 compounds, 0.6% hits; AID 1259389;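 note: score is relative to mean and SD of negative controls; some compounds called inactive have numbers as strong as hits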
# CDC25B-CDK2 inh: human CDC25B-CDK2/CyclinA binding inhibition. P30305+P24941. 94,000 compounds, 0.72% hits. HTRF CDC25B-CDK2/CyclinA binding, anti-His/anti-Flag; stronger effect = higher value. z-score (test concentration not listed);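 note: score is relative to mean and SD of negative controls; strong numbers were not always called active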
# * = called active by the depositor; · = no result given.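 Rule for the calls: active = z-score from 3 up in half or more of its runs; inactive = the rest.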
# Second line of a record: HIV TAR-Tat | CDC25B-CDK2 inh
> CCOC(=O)C(C)n1nnc2sc(-c3ccccc3)cc2c1=O (stereo not drawn)
→ 0.46 | -0.75
> Clc1ccc(-c2noc3ncnc(N(CCCN4CCOCC4)Cc4ccco4)c23)cc1
→ 1.6 | 0.39
> CC(C)c1ccc(S(=O)(=O)N2CCCC(c3nc(-c4ccc(Br)cc4)no3)C2)cc1 (stereo not drawn)
→ 1.4 | ·
> O=C(Cn1cnc2c(nnn2Cc2ccc(Cl)cc2)c1=O)N1CCOCC1
→ -1.3 | 0.55
> O=C1CCCc2cc(S(=O)(=O)N3CCC(C(=O)NCCC4=CCCCC4)CC3)ccc2N1
→ 17 | ·
> COc1ccc(C2NCc3c(sc4c3CCCC4)-n3cccc32)cc1 (stereo not drawn)
→ -4.1 | 0.56
> Cc1ccccc1-n1c(-c2ccc(Cl)cc2)n[nH]c1=S
→ · | -0.7
> CCN(Cc1nc(-c2cccc(C)c2)no1)S(=O)(=O)c1ccc(F)cc1
→ 0.55 | -1.3
> O=c1[nH]c(-c2ccccc2)nc2c1oc1ccccc12
→ 0.63 | 0.42
> CCCOc1ccccc1NC(=O)/C=C/C(N)=O
→ · | 0.76
> O=C(CCS(=O)(=O)c1ccc2c(c1)NC(=O)CS2)NCc1cccs1
→ -0.92 | ·
> COc1cccc(-c2nnc(SCc3cc(=O)n4c(C)csc4n3)o2)c1
→ -0.12 | -1.5
> COc1cc(-c2nc3cnccn3c2Nc2ccc(OC)c(OC)c2)ccc1O
→ 0.38 | -6.1
> O=C1CCCC2=C1C(c1ccco1)Nc1ccc(C(=O)c3ccccc3)cc1N2 (stereo not drawn)
→ 5.9 | -0.46
> C=CCN[C@H]1CS(=O)(=O)C[C@@H]1S(=O)(=O)c1ccc(F)c(C)c1
→ 2.2 | -1.5
> CCCCCOC(=O)C1=C(C)Nc2nnnn2C1c1ccc(OC)cc1 (stereo not drawn)
→ -2.4 | -0.96
> CCN1CCN(c2nc3c(c(=O)[nH]c(=O)n3C)n2CCC(C)C)CC1
→ · | -1
> Cc1cc(C)n(-c2cc(NCc3ccc(Br)cc3)ncn2)n1
→ -0.01 | ·
> CCc1nnc2sc(/C=C/c3ccc(OC)cc3)nn12
→ 1.7 | -1.4
> COC(=O)/C(C#N)=C\c1cc([N+](=O)[O-])ccc1N1CCCC1
→ · | -0.73
> Cc1ccc(N(C)S(=O)(=O)c2ccc(-n3cccn3)cc2)cc1
→ 1 | ·
> COc1cnc(CSc2nnc(C)s2)cc1OCC(=O)NCc1ccco1
→ 0.39 | ·
> S=c1nn[nH]n1C1CCCCC1
→ · | -0.83
> O=C1c2ccc(S(=O)(=O)c3ccc4c(c3)C(=O)N(Cc3cccnc3)C4=O)cc2C(=O)N1Cc1cccnc1
→ · | -1.9
> NC(=O)CSc1nc2ccccc2c(=O)n1-c1ccc(Cl)cc1
→ · | -0.92
> O=C(NC1CCCCC1)c1cccc2c1C(=O)N(CC1CCCO1)C2 (stereo not drawn)
→ -1.1 | -1.3
> Cc1cc(=O)[nH]c2c1c(C)nn2C1CCCC1
→ 4.3 | -2
> CC1CCCN(S(=O)(=O)C2CCS(=O)(=O)C2)C1 (stereo not drawn)
→ 2.7 | -1.7
> CC(=O)NC1C(=O)N=C(SCC(=O)Nc2sc3c(c2C#N)CCCCCC3)NC1=O (stereo not drawn)
→ · | -3
> Cc1cccc(-c2nc3nc(C)cc(Nc4ccccc4)n3n2)c1
→ 2.4 | -0.6

# An excerpt of these results, as labelled records:
canonical_smiles: CC1CCCN(S(=O)(=O)C2CCS(=O)(=O)C2)C1 (stereo not drawn)
  HIV TAR-Tat: 2.7; CDC25B-CDK2 inh: -1.7

canonical_smiles: NC(=O)CSc1nc2ccccc2c(=O)n1-c1ccc(Cl)cc1
  HIV TAR-Tat: ·; CDC25B-CDK2 inh: -0.92

canonical_smiles: CCOC(=O)C(C)n1nnc2sc(-c3ccccc3)cc2c1=O (stereo not drawn)
  HIV TAR-Tat: 0.46; CDC25B-CDK2 inh: -0.75

canonical_smiles: Clc1ccc(-c2noc3ncnc(N(CCCN4CCOCC4)Cc4ccco4)c23)cc1
  HIV TAR-Tat: 1.6; CDC25B-CDK2 inh: 0.39

# Later entries:
# Second line of a record: HIV TAR-Tat | CDC25B-CDK2 inh
> Cc1cc(N2C(=O)CCS2(=O)=O)ccc1S(=O)(=O)N1CCc2ccccc2C1
→ 0.6 | -1.5
> Cc1ccccc1Nc1nc(NCCO)nc2c1cnn2C
→ -0.23 | ·
> COc1ccc(/C(O)=C2\C(=O)C(=O)N(CCN3CCOCC3)C2c2ccc(F)cc2)cc1 (stereo not drawn)
→ 0.75 | -0.45
> Cc1occc1-c1nnc(SCC(N)=O)o1
→ 0.67 | -1.4
> COC(=O)C1=C(C)N=C2SCCC(=O)N2C1c1ccccc1Cl (stereo not drawn)
→ 1 | 0.11
> C=CCn1c(=O)sc2cc(NC(=O)c3cccs3)ccc21
→ 0.6 | ·
> Cc1ccc2occ(CC(=O)Nc3sc4c(c3C(=O)NCc3ccco3)CCC4)c2c1
→ 1.7 | 0.67
> CN1C(=O)C(C)(C)c2cc(S(=O)(=O)Nc3ccc(Cl)cc3)ccc21
→ 2.9 | ·
> COc1ccc(N2CCN(S(=O)(=O)c3ccc(Cl)cc3)CC2)cc1
→ 0.75 | 0.08
> Cc1cc(N(C)/N=C/c2ccccc2Cl)nc(-c2ccccc2O)n1
→ · | -1.8
> Cc1cc(=O)[nH]c(SCC(=O)Nc2nnc(C)s2)n1
→ · | -2.3
> CCCCCNc1nc(CC)c2c(c1C#N)CC(C)(C)OC2
→ 1.8 | -0.47
> CCCCN(CC)CCNS(=O)(=O)c1csc(C(N)=O)c1
→ 1.7 | ·
> CCCc1nc(SCc2cc(=O)n3ccsc3n2)n[nH]1
→ -0.11 | ·
> O=C(Nc1ccc(F)cc1Cl)c1ccc2cccc(O)c2n1
→ 0.19 | -1.8
> COc1ccc(S(=O)(=O)N2CCCN(S(=O)(=O)c3ccc(OC)cc3C)CC2)c(C)c1
→ 0.29 | 1.3
> Cc1ccc(CN2CC(O)=C(c3nc4ccccc4n3C)C2=N)cc1
→ -3.2 | -1.2
> CC(C)(C)C(=O)Cn1c2ccccc2n2nc(CCC(=O)O)c(=O)nc12
→ · | 0.37
> Cc1cc(NC(=O)/C(=C/c2cccs2)c2ccsc2)no1
→ · | -0.85
> OC(COC1=NCNc2cc(Cl)ccc21)c1ccc2c(c1)OCCO2 (stereo not drawn)
→ · | -0.22
> CCc1ccc(S(=O)(=O)c2nnn3c2nc(N2CCSCC2)c2sccc23)cc1
→ 0.95 | ·
> Cc1oc(-c2cccs2)nc1CSc1nnc(C)n2c1cc1occc12
→ 2 | ·
> O=C(Nc1sc2c(c1C(=O)NCCc1ccccc1)CCC2)c1cc(=O)c2ccccc2o1
→ 0.97 | -2.1
> CNC(=S)NNC(=O)c1ccco1
→ · | -2.3
> CC1(C)Cc2c(c(N3CCOCC3)nc3snc(N)c23)CO1
→ · | -2.2
> Cc1ccc(-c2c(NC3CCC(C)CC3)c(=O)c2=O)cc1C (stereo not drawn)
→ 1.9 | ·
> CCC(C)(C)NC(=O)Cn1c(=O)oc2ccccc21
→ 1.5 | ·
> COCCNC(=O)c1cc(S(=O)(=O)N2CCOCC2)cn1C
→ 0.09 | ·
> CC1CCCCN1c1nnc(NC(=O)Nc2ccc(F)cc2)s1 (stereo not drawn)
→ 1.5 | 1.1
> CN(C(=O)c1nc(-c2ccncc2)no1)c1ccc(Br)cc1
→ 0.7 | ·

# (cont.)
mol,HIV TAR-Tat,CDC25B-CDK2 inh
CC1(C)CCC(C)(C)NC(SCC(=O)c2ccc(Cl)cc2)=N1,·,-1.4
Cc1ccc2cc(CCNC(=O)c3ccc(S(=O)(=O)N4CCOCC4)cc3)c(=O)[nH]c2c1C,·,-1.1
Cc1ccccc1OCc1nc2c3cnn(-c4ccccc4Cl)c3ncn2n1,1.3,-2.6
COc1ccc(-c2noc(-c3cc(-c4ccc(OC)cc4OC)n[nH]3)n2)cc1,0.33,·
C=CCOc1ccc(C2c3c(oc4ccccc4c3=O)C(=O)N2c2ccc(C)cn2)cc1OCC (stereo not drawn),0.67,0.85
Cc1c(C(=O)N2c3ccccc3CC2C)oc2c1C(=O)CC(C)(C)C2 (stereo not drawn),·,-1.1
COc1cc(C)nc(N(C#N)C(C)C)n1,1.8,-1.6
CC(=O)c1ccc(Br)s1,·,-1.8
O=C(CC1CCCC1)Nc1c(C(=O)N2CCN(c3ccccc3)CC2)oc2ccccc12,0.92,-1.3
O=C(Nc1ccc2snnc2c1)NC1CC1,1.6,11*

# Individual results from the list:
# Reading of COc1ccc(-c2noc(-c3cc(-c4ccc(OC)cc4OC)n[nH]3)n2)cc1 in HIV TAR-Tat: 0.33
# Reading of C=CCOc1ccc(C2c3c(oc4ccccc4c3=O)C(=O)N2c2ccc(C)cn2)cc1OCC (stereo not drawn) in CDC25B-CDK2 inh: 0.85
# Reading of Cc1ccccc1OCc1nc2c3cnn(-c4ccccc4Cl)c3ncn2n1 in CDC25B-CDK2 inh: -2.6
# Reading of Cc1c(C(=O)N2c3ccccc3CC2C)oc2c1C(=O)CC(C)(C)C2 (stereo not drawn) in CDC25B-CDK2 inh: -1.1
# Reading of COc1cc(C)nc(N(C#N)C(C)C)n1 in CDC25B-CDK2 inh: -1.6

# (more compounds)
mol,HIV TAR-Tat,CDC25B-CDK2 inh
Cc1ccc(S(=O)(=O)c2c[nH]c3cc(F)ccc3c2=O)cc1F,0.84,-2.3
COc1cc(N)c(Cl)cc1C(=O)OCCN1CCCCC1,·,-0.21
Cc1c(-c2nsc(NC(=O)c3ccco3)n2)nnn1-c1ccc(F)cc1F,1.5,2.5
O=C(C1CCCCC1)N1CCN(S(=O)(=O)c2ccc(Cl)cc2)CC1,·,-0.68
O=C(NCCCc1nc2ccccc2n1CCC1CCCCC1)c1ccco1,0.33,0.83
CC(=O)NC1=CC(=O)CC(C)(C)C1,·,-1.3
Cc1ccc2c(c1)C(=O)C(=O)N2CCOc1ccc(Br)cc1,0.66,-0.66
C=CCc1ccccc1OCc1cc(=O)n2nc(SCC)sc2n1,-0.19,-1.2
O=c1[nH]oc2cc(Cl)ccc12,·,-0.2
Cn1nnnc1SCCNCc1cc(Cl)ccc1OCc1ccc(F)cc1,-0.63,-1.1
NC(=O)c1cc(S(=O)(=O)N2CCC(N3CCCCC3)CC2)cs1,3.4,·
CSC1=C(C#N)C(c2ccc(Cl)cc2)C2=C(CCCC2=O)N1 (stereo not drawn),-0.85,-2.2
COc1cc(C2SC(NC(C)=O)=NN2C(C)=O)cc(Br)c1OCc1ccc(C)cc1 (stereo not drawn),2.4,0.66
Cn1c(=O)oc2cc(S(=O)(=O)N3CCCC3c3cccc(F)c3)ccc21 (stereo not drawn),0.26,0.12
Cc1nn(C(C)C(=O)NCCN(C)C)c(=O)c2c1sc1ccccc12 (stereo not drawn),-0.36,-0.34
CCSc1nc2c(c(=O)[nH]1)C(c1cc(F)cc(F)c1)CC(=O)N2 (stereo not drawn),-0.42,-1.1
CN(C)c1nc(Oc2ccc(OCc3ccccc3)nn2)nc(N2CCCC2)n1,0.82,1
Cn1c(SCC(=O)c2cccc([N+](=O)[O-])c2)nnc1-c1ccco1,·,-2.1
COc1ccccc1N1CCN(S(=O)(=O)c2ccc3[nH]c4c(c3c2)CCCC4)CC1,-3.7,·
CC1CC(C)CN(S(=O)(=O)N2CCCC(C(=O)NCc3ccco3)C2)C1 (stereo not drawn),1,·
Cc1ccc(Nc2c(-c3ccccc3)nc3cnccn23)cc1,·,-1.1
CC1(C)Cc2c(sc3nc(SCC(=O)O)[nH]c(=O)c23)CO1,-0.14,-1.1
Cc1nc(N2CCN(c3ccc(F)cc3)CC2)c2cc(C)sc2n1,·,-2.2
COc1ccc2nc(NC(=O)c3nc(SC)ncc3Cl)sc2c1,2.5,-1.6
COc1ccc(C)cc1NC(c1cccnc1)c1ccc2cccnc2c1O (stereo not drawn),0.86,-1.4
Cc1nn(CCCC(=O)NCCN2CCCCC2C)c(=O)c2cc3occc3n12 (stereo not drawn),3,-3.9
O=C1C=C(c2ccccc2)OC(c2ccc([N+](=O)[O-])cc2)O1 (stereo not drawn),·,-2.9
Cc1nc2scc(C)n2c(=O)c1S(=O)(=O)Nc1ccc(N2CCOCC2)c(Cl)c1,0.59,-0.38
CCN(Cc1ccccc1)C(=O)Cn1ncc2c3ccccc3n(Cc3ccccc3)c2c1=O,1.3,-0.55
O=C(NC1CCCCC1)c1cncc(NS(=O)(=O)c2ccc3c(c2)OCCO3)c1,0.97,·
CS(=O)(=O)N(CC(=O)N1CCc2ccccc2C1)c1cccc2ccccc12,-1.1,0.28
CCN1CCN(C(=O)c2cc3n(n2)CC(C)(C(=O)NC2CCCCC2)N(C)C3=O)CC1 (stereo not drawn),0.07,·
CSc1cccc(NC(=O)Nc2c(C)n(C)n(-c3ccccc3)c2=O)c1,0.65,-0.97
COc1nccn(-c2ccc(F)cc2)c1=O,-0.66,0.74
O=C(Cn1nc2c(cc1=O)CCCC2)Nc1ccc(F)cc1F,2.7,·
C[C@](Cc1ccc(O)c(O)c1)(NN)C(=O)O,·,-1.1
CC12CN3CC(C)(CN(C1)C3c1ccc3c(c1)OCO3)C2=O (stereo not drawn),·,-1.8
O=C(NCc1ccccc1)c1ccc2snnc2c1,·,-0.52
N#CC(=C1SCCCS1)S(=O)(=O)c1cccs1,·,-1.3
O=c1[nH]n(-c2ccc(S(=O)(=O)N3CCN(c4ccccc4)CC3)cc2)c(=O)c2ccccc12,1.7,-1.9
O=C(CSc1ncnc2sc3c(c12)CCCC3)NCc1ccco1,-1.2,-3.2
CS(=O)(=O)N1CCN(C(=O)c2ccc3c(c2)OCCO3)CC1,-0.04,·
COc1cccc(NC2c3ccccc3C(=O)N2c2ccc(Cl)cc2)c1 (stereo not drawn),0.06,-1.4
Brc1ccc(-c2ccc(/C=C/c3nc4ccccc4o3)o2)cc1,-7.8,-0.96
Cc1nc2c(C(=O)N3CCCC3)c[nH]n2c(=O)c1Cc1ccc(Cl)cc1,·,-0.44
O=C(NC1CC1)c1cnc(N2CCOCC2)nc1,1.4,·
CC(=O)N(c1ccc(NS(=O)(=O)c2c(C)noc2C)cn1)S(=O)(=O)c1c(C)noc1C,·,-2.8
